High-throughput results deposited in PubChem BioAssay by Broad Institute.
FGF22 binding – binders of human FGF22 protein, primary screen, FGF22 synaptogenesis inhibitor project, biophysical, thermal shift, single point; calls only at 9.99 µM; AID 651658, 2012; Fibroblast growth factor 22 (Homo sapiens), Q9HCT0; 340,000 compounds, 1.5% hits; recombinant FGF22 thermal shift, SYPRO orange fluorescence; percent of sucrose octasulfate shift, DMSO zero;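 active = melting point raised past a set limit in the mean and every replicate; inconclusive = no clear call; three in four hits are not shown here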
Target sequence (Q9HCT0 whole entry, looked up): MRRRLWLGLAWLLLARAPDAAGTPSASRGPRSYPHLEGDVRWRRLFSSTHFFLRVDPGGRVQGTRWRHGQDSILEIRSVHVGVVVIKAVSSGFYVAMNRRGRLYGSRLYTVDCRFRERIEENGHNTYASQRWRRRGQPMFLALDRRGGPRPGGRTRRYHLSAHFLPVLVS
rRNA inh HTS – reduced GFP signal of wild-type E. coli, primary screen, bacterial rRNA inhibitor project, GFP/RFP fluorescence, OD600, single point; E. coli WT GFP vs humanized-ribosome RFP mutants, 24 h; hits give low values; DMSO median 0, no signal -100; 350,000 compounds, 1.6% hits; GFP signal change (wild-type ribosome), % (concentration not given with the values);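 active = significant combined selectivity score with lowered wild-type GFP, culture density cut under 30%, mutant RFP and density less affected; inactive = any of these conditions unmet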; also: one replicate is shown; some compounds called inactive have numbers as strong as hits
AF4-AF9 inh – inhibitors of AF4 peptide binding to AF9, primary screen, biochemical, AlphaScreen, biotin-AF4 peptide, FLAG-AF9, single point; Protein AF-9 (Homo sapiens), P42568; inhibition, % at 10 µM; 350,000 compounds, 0.47% hits; AID 651704, 2012;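 active = every replicate reaching a set inhibition limit, whatever the replicate mean, cut at about 25% in these data; inconclusive = mean inhibition reaches that limit but some replicates miss it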;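 also: 0% = plate neutral control median and 100% = total signal loss; the record names both 10 and 1 µM as test concentration; the first replicate is given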
Target sequence (P42568 whole entry, looked up): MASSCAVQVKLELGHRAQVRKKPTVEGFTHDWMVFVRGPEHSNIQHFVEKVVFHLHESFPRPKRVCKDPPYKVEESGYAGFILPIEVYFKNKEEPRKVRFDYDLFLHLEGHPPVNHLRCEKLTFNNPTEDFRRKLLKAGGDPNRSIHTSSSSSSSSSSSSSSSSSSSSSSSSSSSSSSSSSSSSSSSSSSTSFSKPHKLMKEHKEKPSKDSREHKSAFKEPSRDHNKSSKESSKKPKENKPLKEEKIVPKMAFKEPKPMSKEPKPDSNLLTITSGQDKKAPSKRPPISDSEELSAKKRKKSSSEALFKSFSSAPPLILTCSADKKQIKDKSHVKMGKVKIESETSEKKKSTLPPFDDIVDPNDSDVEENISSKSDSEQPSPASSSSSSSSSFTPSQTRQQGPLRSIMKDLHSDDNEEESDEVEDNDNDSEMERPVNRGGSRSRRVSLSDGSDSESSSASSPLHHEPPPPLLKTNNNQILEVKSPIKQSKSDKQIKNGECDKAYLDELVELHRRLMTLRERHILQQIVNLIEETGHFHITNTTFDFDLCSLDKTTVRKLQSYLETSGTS
T cruzi inh – inhibitors of intracellular T. cruzi growth, primary screen, luminescence, NIH3T3 host cells; T. cruzi beta-gal in NIH3T3, 90 h; inhibition, % (concentration not given with the values); 300,000 compounds, 1.4% hits; AID 1885, 2009;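 active = mean inhibition across valid replicates above about 55%, limit read from the data; inconclusive = mean below that limit but half or more replicates reach it; inactive = mean below it, under half of replicates reach it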;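 also: signal also drops with host cell toxicity which is not excluded here; 0% = plate median of DMSO wells and 100% = zero luminescence signal; higher percent means less beta-gal luminescence so fewer parasites; stock transfer was 50 nL into about 50 µL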
ALR H2O2 inh – inhibitors of human ALR sulfhydryl oxidase, primary screen, biochemical, H2O2 detection, HRP-luminol luminescence, single point. FAD-linked sulfhydryl oxidase ALR (Homo sapiens), P55789. purified ALR, DTT oxidation. inhibition, % (no concentration beside the values). 290,000 compounds, 3.8% hits;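 active = mean and each replicate at 75% or more; inconclusive = only one of the two met; inactive = neither met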;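 also: stock transfer was 7.5 nL into about 7.5 µL; 0% = neutral wells and 100% = wells with inactivated enzyme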
Target sequence (P55789 whole entry, looked up): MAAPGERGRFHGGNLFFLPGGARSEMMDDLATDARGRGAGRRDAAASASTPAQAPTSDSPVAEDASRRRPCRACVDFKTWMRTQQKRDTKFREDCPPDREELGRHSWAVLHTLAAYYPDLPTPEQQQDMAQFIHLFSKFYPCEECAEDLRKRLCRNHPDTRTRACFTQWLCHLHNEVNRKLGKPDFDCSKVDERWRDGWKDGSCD
RanGTP-Impb inh – inhibitors of RanGTP-importin-beta interaction, primary screen, biochemical, FRET, CFP-Ran, YFP-importin-beta, homogeneous; Ran GTPase (GTP-bound) - importin-beta complex; cell-free CFP-Ran/YFP-importin-beta FRET ratio; inhibition, % (no concentration beside the values); 300,000 compounds, 1.1% hits; AID 2216, 2009;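 active = most replicates above 15%; inconclusive = exactly half above 15%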;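 also: 0% = DMSO wells and 100% = Ran loaded with GDP instead of GTP; wells of about 40 µL received 100 nL stock; the first replicate is given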
Calb FLC – C. albicans growth inhibition with fluconazole, primary screen, CaCi-2 strain, Alamar Blue fluorescence. C. albicans CaCi-2 (fluconazole-resistant clinical isolate) + fluconazole, 48 h. growth inhibition, % (no concentration beside the values). 300,000 compounds, 0.57% hits. AID 1979, 2009;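 active = most replicates above 75%; inconclusive = exactly half above 75%; inactive = most below 75%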;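 also: all wells also contain fluconazole at 8 µg/ml as a sub-toxic cotreatment; 0% = median of DMSO wells and 100% = median of geldanamycin control wells; wells of about 8 µL received 7.5 nL stock; the first replicate is given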
Beta cell apopt – inhibitors of cytokine-induced beta cell apoptosis, primary screen, luminescence; INS-1E cytokine-induced death, ATP luminescence, 48 h; percent of positive-control rescue, neutral wells zero; protection from apoptosis, % (no concentration beside the values); 300,000 compounds, 0.8% hits; AID 435005, 2010;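 active = all replicates at 75% or more, or half of them and the mean; inconclusive = half reach 75% but not the mean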;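 also: 0% = cytokine-treated negative control wells and 100% = positive control rescue; higher means more ATP so stronger rescue from cytokine killing; wells of about 40 µL received 100 nL stock; the first replicate is given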
rRNA inh HTS OD600 – further read-out of rRNA inh HTS, marked with its call; OD600 change, %; measured here: OD600 growth;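 optical density of the mix in the first replicate; 0 = DMSO median and -100 = no signal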
rRNA inh HTS RFP – also measured in rRNA inh HTS; calls as there; RFP signal change, %; measured here: RFP humanized mutant strains;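 first replicate; 0 = DMSO median and -100 = no signal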
* marks the source's active call; other numbers are inactive results; i = inactive; ? = inconclusive; . = not tested or not shown.

Values run as follows: FGF22 binding | rRNA inh HTS | rRNA inh HTS OD600 | rRNA inh HTS RFP | AF4-AF9 inh | T cruzi inh | ALR H2O2 inh | RanGTP-Impb inh | Calb FLC | Beta cell apopt
- O=C(Nc1ccc(Cl)c(Cl)c1)N(CCCN1CCOCC1)Cc1cccnc1
  i | -3 | -9 | -4.4 | -0.3 | 40 | -7 | -0.9 | ? | -11
- Cc1ccc(CNC(=O)CSc2nc(=O)n3ccccc3n2)cc1
  . | . | . | . | . | 1 | -2 | 0.5 | -7 | -2
- Clc1ccc(CON/C=N/c2ncnc3sccc23)c(Cl)c1
  . | . | . | . | . | 11 | -3 | 1.5 | 7 | 24
- Cc1ccc(NC(=O)c2ccc(F)cc2)nc1
  i | 1 | 3 | -2.2 | -1.5 | -12 | -3 | -4.3 | -13 | 1
- COCCNc1cc(C)nc2c3c(C)cc(C)nc3nn12
  . | . | . | . | . | 10 | -3 | 50* | 20 | 2
- Cc1ccc(-c2c[n+](CC(=O)c3cccs3)c3n2CCC3)cc1
  i | -44* | -34* | -9.4* | 4.3 | 0 | . | 1.8 | 10 | 0
- COCCNC(=O)C(c1ccc(F)cc1)N(C(=O)CCC(=O)Nc1ccccn1)c1ccc(C)cc1 (stereo not drawn)
  i | 6 | 5 | -1.3 | 1.1 | 19 | . | 4.2 | -5 | 1
- CCN(CC(=O)NCC1CCCO1)S(=O)(=O)c1ccc(Cl)cc1 (stereo not drawn)
  i | 12 | 21 | 3.2 | -0.8 | -4 | -3 | -5.2 | 6 | -3
- COc1ccc(C(C)=NNC(=O)c2cccc(S(=O)(=O)N3CCCC3)c2)cc1
  i | 17 | -1 | 1.5 | -2.2 | . | -5 | . | . | -3
- CC(C)Cc1nnc(NC(=O)C2CCCC2)s1
  i | 20 | 10 | 6.4 | 0.8 | -2 | 5 | -4.4 | -9 | -2
- C=CCc1c(C)nc(SC(C)C)[nH]c1=O
  . | . | . | . | . | 0 | 1 | -1.8 | -4 | -1
- CCCS(=O)(=O)c1c(S(=O)(=O)CCC)c2ccc(C(N)=O)cn2c1C(=O)c1ccccc1
  i | -1 | 8 | -2.1 | 4.5 | -1 | 12 | 1.0 | 53 | -1
- CCC(C(=O)OCn1nnc2ccccc2c1=O)c1ccccc1 (stereo not drawn)
  i | 10 | 9 | 2.7 | 1.1 | 5 | -11 | -0.1 | 6 | 0
- O=C(NCCCN1CCCCC1)C1CC(=O)N(CCc2ccccc2)C1 (stereo not drawn)
  i | 1 | 8 | -2.2 | -0.9 | 1 | -16 | -1.7 | 1 | -8
- Cc1cc(C)n(Cc2ccc(C(=O)O)o2)n1
  . | . | . | . | . | -7 | -7 | 7.1 | -6 | -6
- Cc1cc(C)n(Cc2ccc(C(=O)NCc3ccco3)o2)n1
  . | . | . | . | . | -4 | 11 | 1.3 | -2 | -9
- CCc1ccc(/C=C2\Oc3cc(OS(C)(=O)=O)ccc3C2=O)cc1
  i | 0 | 1 | -2.3 | 0.0 | 17 | -2 | 2.8 | -9 | -7
- COc1ccc(CNS(=O)(=O)c2csc(C(N)=O)c2)cc1OC
  i | 2 | 4 | 2.1 | -1.4 | 1 | -3 | 4.0 | -7 | 0
- Oc1ccc(Nc2nc3ccccc3nc2Nc2ccc(O)cc2)cc1
  . | . | . | . | . | 71* | 96* | 6.8 | 42 | .
- Cc1ccc2c(c1)N(CCC(=O)NCc1ccco1)C(=O)CO2
  . | . | . | . | . | 0 | -7 | ? | -3 | -7
- O=C(CN1N=C(c2ccccc2)CCC1=O)NCCN1CCc2ccccc2C1
  . | . | . | . | . | -9 | -9 | -0.4 | -5 | -4
- Cc1ccc(C2CC(=O)C(C=NCCN3CCN(C(=S)Nc4ccc(F)cc4)CC3)=C(O)C2)cc1 (stereo not drawn)
  . | -14 | -2 | 2.3 | 2.8 | -29 | -6 | 1.0 | -2 | -5
- O=C(COC(=O)c1ccc(S(=O)(=O)N2CCOCC2)cc1)Nc1ccccc1F
  i | 5 | 12 | -1.1 | -3.9 | . | -6 | . | . | 0
- CC(=O)c1c(C)cc(C)c(CSc2nnc(-c3ccco3)o2)c1C
  . | . | . | . | . | 0 | 90* | 0.1 | 19 | -5
- N#C/C(=C\c1cn(CCOc2ccccc2)c2ccccc12)C(=O)NCc1ccco1
  . | . | . | . | . | -9 | 0 | 6.7 | 0 | -3
- O=C(O)C1CCCCC1C(=O)NCCc1ccncc1 (stereo not drawn)
  . | . | . | . | . | -5 | 0 | 2.1 | -7 | 0
- Cc1nc2sc(C(c3ccco3)N3CCOCC3)c(O)n2n1 (stereo not drawn)
  . | . | . | . | . | 4 | -3 | -0.3 | -24 | -7
- COC(=O)C(O)(CC(=O)Nc1cc(OC)c(OC)c(OC)c1)C(F)(F)F (stereo not drawn)
  . | . | . | . | . | -15 | 0 | -2.9 | 27 | 6
- O=C(COC(=O)c1cccc(F)c1)NC(=O)NCc1ccccc1
  i | 4 | 4 | 0.0 | 2.5 | . | . | . | . | -7
- Cc1ccc(OCC(O)CN2CCCC2)cc1 (stereo not drawn)
  . | 5 | 7 | 3.0 | 0.9 | -1 | . | -0.9 | 0 | .
- O=[N+]([O-])c1nn(-c2ccccc2)[n+]([O-])c1N1CCN(c2ccccc2F)CC1
  i | 18 | 19 | 1.0 | -0.2 | 57* | -12 | -1.9 | -20 | -4
- CCc1ccc(-c2cc(C)no2)cc1S(=O)(=O)Nc1ccc(Cl)cn1
  i | 9 | 3 | 6.2 | -2.9 | -25 | -4 | 9.6 | -1 | -4
- Cc1cc(C)c(-n2nnnc2SC(C)C)c(C)c1
  i | . | . | . | -2.9 | -10 | -4 | -0.2 | -2 | 0
- COc1cccc(/C=C2/C(=O)NN(c3ccc(C)c(C)c3)C2=O)c1
  i | -1 | -10 | -2.0 | -1.7 | 2 | 99* | 5.1 | -42 | -6
- CCC1Oc2ccc(C)cc2N(CC(=O)NC2CCCCC2)C1=O (stereo not drawn)
  i | 15 | 12 | 1.2 | 0.0 | 12 | -1 | -3.5 | 3 | -2
- CCc1nnc(NC(=O)c2ccc(-c3ccc(Cl)cc3)o2)s1
  . | . | . | . | . | -10 | -1 | 2.6 | 12 | -8
- COc1cccc(NC(=O)CN(C)C(=O)c2cc(-c3cccc(Br)c3)nc3ccccc23)c1
  i | 6 | -6 | 1.4 | -0.8 | 38 | -1 | 6.9 | 2 | 4
- CNc1c(NS(=O)(=O)c2cc(NC(C)=O)ccc2C)c(=O)oc2ccccc12
  i | 5 | 11 | -1.5 | -4.0 | -5 | ? | 3.8 | 6 | -5
- c1ccc(-c2nc(N3CCOCC3)sc2-c2ccccc2)cc1
  . | -2 | -18 | -1.8 | 13 | 30 | 5 | -0.3 | 1 | 4
- COc1ccc(C(=O)O)cc1S(=O)(=O)N1CCN(c2ccccn2)CC1
  i | -5 | 3 | -3.2 | -1.1 | -9 | . | 0.2 | -6 | -3
- CCN(CC)S(=O)(=O)c1cccc(-c2n[nH]c(=S)n2/N=C/c2ccc(Br)cc2)c1
  . | . | . | . | . | 15 | -11 | 6.0 | -12 | .
- O=C(NC1CCCCCC1)c1cc(S(=O)(=O)N2CCCCC2)ccc1N1CCOCC1
  i | -18 | -19 | -0.2 | -0.6 | 4 | -13 | 1.9 | 1 | -4
- CC(=O)c1cccc(NC(=O)C(C)OC(=O)Cc2n[nH]c(=O)c3ccccc23)c1 (stereo not drawn)
  i | 12 | 6 | 6.6 | -0.1 | 2 | -9 | 3.3 | -16 | 3
- O=C(NNS(=O)(=O)c1c(F)cc(F)c(Cl)c1F)C12CC3CC(CC(C3)C1)C2
  i | -11 | -42 | 1.3 | -1.9 | . | -8 | . | . | -12
- COc1ccc(N=C2SC(CC(=O)Nc3ccccc3)C(=O)N2CC2CCCO2)cc1 (stereo not drawn)
  . | . | . | . | . | 18 | -5 | -1.8 | -9 | -6
- CC1CCOC2(O1)C(=O)Nc1ccccc12 (stereo not drawn)
  i | 14 | 7 | -4.4 | 0.0 | 3 | -4 | -0.7 | 9 | 0
- CCSc1n[nH]c2nc3c(c(=O)n12)C1(CCCCC1)Cc1ccccc1-3
  i | 1 | -8 | -0.3 | -7.0 | -6 | . | 8.9 | 16 | -8
- CCn1c(=O)c(C(=O)CN2CCc3ccccc32)c(N)n(Cc2ccccc2)c1=O
  i | 10 | 6 | 5.2 | 0.2 | -7 | -10 | ? | -4 | 0
- Fc1ccc2c(-c3cccc(C(F)(F)F)c3)c(-c3ccccc3)ncc2c1
  i | 5 | 7 | -1.4 | . | . | -8 | . | . | 8
- CCN1C(=O)[C@H]2[C@@H](c3ccc(C)cc3)N3C(=O)N(c4ccc(C(F)(F)F)cc4)C(=O)[C@@]3(CC(C)C)[C@H]2C1=O
  i | -2 | -4 | -3.9 | 1.4 | 7 | -2 | -1.7 | 25 | 5

Next section
Values run as follows: FGF22 binding | rRNA inh HTS | rRNA inh HTS OD600 | rRNA inh HTS RFP | AF4-AF9 inh | T cruzi inh | ALR H2O2 inh | RanGTP-Impb inh | Calb FLC | Beta cell apopt
- Cc1cc(C(=O)NC2=NCCS2)cs1
  . | . | . | . | . | . | -13 | ? | 24 | -5
- CCC(=O)Nc1cccc(-n2nnnc2SCC(=O)NCc2ccco2)c1
  . | 0 | -20 | 3.1 | . | -11 | -8 | -4.4 | 0 | -2
- Nc1cc(C(=O)O)c(Oc2ccc(Cl)cc2Cl)cc1C(=O)O
  . | . | . | . | . | -20 | -8 | -0.5 | 2 | -13
- COc1ccc(CN2CCn3ncc(C(=O)Nc4ccc(Cl)cc4Cl)c3C2=O)cc1
  . | . | . | . | . | 2 | . | 0.2 | -9 | 7
- O=C(O)CC1(CC(=O)Nc2cc3ccccc3cn2)CCCCC1
  i | -11 | -7 | -3.3 | 3.9 | -28 | 0 | 3.7 | -23 | -10
- CCCCn1c(O)c(C(CC)=Nc2ccc3c(c2)CCC3)c(=O)[nH]c1=O
  . | . | . | . | . | 12 | -2 | 2.5 | 38 | -3

A portion of the library; rates above refer to the full screens.
